Source: PubChem BioAssay
NPYLR7 ag: mosquito NPYLR7 agonism; HEK293T NPYLR7/Galpha15, GCaMP6s calcium fluorescence; activation, % at 10 µM; 270,000 compounds, 0.15% hits; AID 1259423; in the data active means activation above about 40%;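 further: 0% = vehicle and 100% = reference agonist at the receptor; some compounds past the cut are filed as inactive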
NPYLR7 ag max-min: recorded beside NPYLR7 ag, whose call it bears; activation, %; measured here: Max-Min RFU normalised activation; some inactives read as strong as hits;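 span of the calcium signal over five minutes; 0% = vehicle and 100% = native peptide agonist; compound fluorescence can raise it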
* = called active by the depositor; & = joins results of further samples.

Below each compound: NPYLR7 ag, NPYLR7 ag max-min
Cc1cncc(N2CCN(c3ccncc3)CC2)n1
    7, 8
CC(C)c1noc2ncc(C(=O)NC(C)C(C)C)cc12 (configuration not stated)
    0, 1
CCc1ccc(-c2csc(N)n2)s1
    0, -1
Cc1ncc(CN2CCOC(CCNC(=O)NC(C)C)C2)[nH]1 (configuration not stated)
    -1, -4
O=C(c1ccccc1)N1CCN(Cc2nc3ccc(Cl)cc3c(=O)[nH]2)CC1
    5, 5
CCOCCn1cc(C2CCN(S(=O)(=O)c3c(C)cc(C)cc3C)CC2)c2ccccc21
    9, 4
CN(CCC(O)c1ccccc1)C(=O)c1ccc(Cl)s1 (configuration not stated)
    7, 5
O=C(c1ccc(N2CCCOCC2)nc1)N1CCCC(Cn2ccnc2)C1 (configuration not stated)
    -1, -3
Cc1nnsc1CN(C)C(=O)c1cc(-c2ccc(O)cc2)n[nH]1
    -6, -11
O=C(NCc1ccoc1)C1CCCN(C2CCN(Cc3cccnc3)CC2)C1 (configuration not stated)
    -8, -12

(cont.)
Below each compound: NPYLR7 ag, NPYLR7 ag max-min
COCc1nc(-c2ccccc2)nc(N2CCN(C(=O)N(C)C)CC2)c1Cc1ccccc1F
    8, 20
Cc1sc2ncn(NC(=O)CCl)c(=O)c2c1C
    2, 5
CCCNC(=O)C1(C)CCCN(CCC(=O)c2ccccc2)C1 (configuration not stated)
    8, 5
O=C(c1ccc(Cl)cc1)N(Cc1cccnc1)Cc1nccn1Cc1ccccc1Cl
    25, 29
CN1C2C=C3C(C#N)C(=N)C(C#N)(C#N)[C@@H](c4ccc(F)cc4)[C@@H]3C1CC2 (some centres not stated)
    11, 5
CCOc1ccccc1N(CN1C(=O)c2ccccc2C1=O)C(=O)c1ccccc1F
    0, -5
Cc1nc(CC(C)C)sc1C(=O)Nc1nn[nH]n1
    4, 1
CCc1ccc(-n2c(C)cn3c4c(=O)n(C(C)C(C)=O)c(=O)n(C)c4nc23)cc1 (configuration not stated)
    -1, 4
COc1ccc(NC(=O)Cn2ncn3nc(-c4ccccc4)cc3c2=O)cc1Cl
    -6, -13
CCc1nccn1CC(=O)N1CCC(Cc2cccc(C(N)=O)c2)C1 (configuration not stated)
    5, 3

Continuation.
Below each compound: NPYLR7 ag, NPYLR7 ag max-min
Cc1ccc(Cc2nsc(N3CCCN(C(=O)c4ccc(C(F)(F)F)cc4)CC3)n2)cc1
    16, 15
CC1(C)C(=O)NC2=C1C(=O)C(=O)c1ccccc12
    -12, -16
CC(=O)c1cccc(-c2ccc(C(=O)N3CCC(CN4CCCC4=O)CC3)cn2)c1
    5, 0
Cc1ccccc1C1(O)CCN(Cc2ccc3ccccc3n2)C1 (configuration not stated)
    -3, -4
COc1cc(=O)n(-c2ccccc2C)nc1C(=O)NCc1ccc(C)cc1
    5, 2
COc1ccc(N2CCN(c3cc(C(F)(F)F)nc(SCc4cccc(C(=O)NCC5CC5)c4)n3)CC2)cc1
    4, 6
Cc1[nH]cnc1-c1nccn1-c1ccccc1OCC1CCCO1 (configuration not stated)
    8, 6
Cc1nn(CCC(=O)N2CCOC3(CNCCOC3)C2)c(C)c1C (configuration not stated)
    9, 5
COc1ccccc1-c1nc2cc(C)ccn2c1NC(=O)CC(C)CC(C)(C)C (configuration not stated)
    -11, -9
CCc1cnc(C)nc1-c1ccc(-c2ccn[nH]2)cc1
    -5, -3

Next section; the last 6 above are carried over.
Below each compound: NPYLR7 ag, NPYLR7 ag max-min
COc1cc(=O)n(-c2ccccc2C)nc1C(=O)NCc1ccc(C)cc1
    5, 2
COc1ccc(N2CCN(c3cc(C(F)(F)F)nc(SCc4cccc(C(=O)NCC5CC5)c4)n3)CC2)cc1
    4, 6
Cc1[nH]cnc1-c1nccn1-c1ccccc1OCC1CCCO1 (configuration not stated)
    8, 6
Cc1nn(CCC(=O)N2CCOC3(CNCCOC3)C2)c(C)c1C (configuration not stated)
    9, 5
COc1ccccc1-c1nc2cc(C)ccn2c1NC(=O)CC(C)CC(C)(C)C (configuration not stated)
    -11, -9
CCc1cnc(C)nc1-c1ccc(-c2ccn[nH]2)cc1
    -5, -3
Cc1sc2ncnc(SCC(=O)Nc3sc4c(c3C(N)=O)CCC4)c2c1C
    3, 2
Cc1cc(C=C(C#N)C(=O)O)c(C)n1CC(C)C
    2, 3
CC(=O)c1ccc(C(=O)N2CCC(C(=O)Nc3cccc(-c4ccco4)c3)CC2)s1
    2, -3
O=C(c1ccccc1)C1C(c2ccc(Cl)cc2)NC(=S)NC1(O)C(F)(F)F (configuration not stated)
    -1, -1
CCNC(=O)NC1CN(C(=O)Cc2ccccc2O)C[C@@H]1OC (some centres not stated)
    9, 9
COC(=O)Cc1cc(=O)n2ccnc2[nH]1
    -8, -15
COCCNC(=S)N1CCn2c1nc1ccccc12
    5, 11
COc1cccc(CSc2nnc(C(C)NC(=O)C(Cl)Cl)n2-c2ccc(C)cc2)c1 (configuration not stated)
    0, -6
CCC1(c2ccc(F)cc2)NC(=O)N(CC(=O)NCC(C)C)C1=O (configuration not stated)
    1, -4
CC1CCCC(C)N1C(=O)CSc1nnc(-c2cccnc2)o1 (configuration not stated)
    0, -4

Additional records:
Below each compound: NPYLR7 ag, NPYLR7 ag max-min
Nc1[nH]ncc1-c1ccccc1
    8, 13
CCCCn1c(CN2CC3C4CCC(C4)C32)nc2c1c(=O)[nH]c(=O)n2Cc1ccccc1 (configuration not stated)
    -5, -5
O=C(N[C@@H]1CCCCC1NC(=O)C1CCCN(C(=O)c2cc(Cl)cc(Cl)c2)C1)c1ccc(F)cc1 (some centres not stated)
    -3, 7
O=C(Nc1ccc(Nc2ccccc2)cc1)Nc1c[nH]c2ccccc12
    2, 0
COc1cc(OC)cc(C(=O)Nc2nc(-c3ccc(I)cc3)cs2)c1
    3, 0
C=CCCC(O)(CCC=C)c1ccc(CN(Cc2cc(OC)cc(OC)c2)C(C)C)o1
    -8, -2
Cc1nn(-c2ccccc2)c(Cl)c1CNCC1CN(C)CCO1 (configuration not stated)
    2, -1
Cc1cc(NC(=O)CN2C[C@@H]3C4CCC(CC4)[C@@H]3C2)no1
    -1, 1
O=C(NC1CC1)C1CNCCN1C(=O)c1cccc2cnccc12 (configuration not stated)
    12, 9
CCC(NC1CCN(Cc2ccccn2)CC1)c1ccnn1C (configuration not stated)
    10, 8

The list goes on:
Below each compound: NPYLR7 ag, NPYLR7 ag max-min
COc1cc(F)ccc1-c1c(-c2ccccc2)ncn1CCCn1cncn1
    -2, -4
CN(Cc1cc(-c2cccs2)n[nH]1)C(=O)C1=NNC(=O)CC1
    0, -6
CC(C)c1nc(N2CCCC(O)(CN(C)C)CC2)no1 (configuration not stated)
    4, 1
CCOC(=O)c1[nH]c(C)c(S(=O)(=O)Nc2ccc(C(F)(F)F)cc2)c1C
    1, 32
CCC(C(=O)N(Cc1cc(NS(=O)(=O)c2ccc(OC)cc2)ccc1N(C)C)C1CC1)c1ccccc1 (configuration not stated)
    3, 17
O=C(O)CCN(CCCN1CCOCC1)c1nc(-c2ccccc2Cl)nc2ccccc12
    2, 13
Cc1cccnc1CNC(=O)NC(C)c1cccc(-n2ccnc2)c1 (configuration not stated)
    2, 2
COc1cc(OC)cc(C(=O)NC2CCN(c3ccccc3C(=O)NCCc3ccc(OC)c(OC)c3)CC2)c1
    -2, -2
CCOc1ccccc1NC(=O)NC(C(=O)Nc1nnc(-c2cccc(C)c2)s1)C(C)C (configuration not stated)
    23, 22
CC(NC(=O)COc1c(Cl)cccc1Cl)c1ccco1 (configuration not stated)
    -12, -10

Laid out differently: 6 of the compounds above
| Compound | NPYLR7 ag | NPYLR7 ag max-min |
| --- | --- | --- |
| CCC(C(=O)N(Cc1cc(NS(=O)(=O)c2ccc(OC)cc2)ccc1N(C)C)C1CC1)c1ccccc1 (configuration not stated) | 3 | 17 |
| O=C(O)CCN(CCCN1CCOCC1)c1nc(-c2ccccc2Cl)nc2ccccc12 | 2 | 13 |
| Cc1cccnc1CNC(=O)NC(C)c1cccc(-n2ccnc2)c1 (configuration not stated) | 2 | 2 |
| COc1cc(OC)cc(C(=O)NC2CCN(c3ccccc3C(=O)NCCc3ccc(OC)c(OC)c3)CC2)c1 | -2 | -2 |
| CCOc1ccccc1NC(=O)NC(C(=O)Nc1nnc(-c2cccc(C)c2)s1)C(C)C (configuration not stated) | 23 | 22 |
| CC(NC(=O)COc1c(Cl)cccc1Cl)c1ccco1 (configuration not stated) | -12 | -10 |

Remaining list, next part:
Below each compound: NPYLR7 ag, NPYLR7 ag max-min
Cc1nc(NC2CCCCC2)sc1-c1ccccc1
    2, 1
COc1ccc(-c2nnc3c4ccccc4c(C)nn23)cc1S(=O)(=O)N1CCOCC1
    -7, -16
CCn1cc(NC(=O)c2cnc3ccccc3n2)ccc1=O
    6, 3
COc1ccc(N2C(=O)C(=Cc3ccccc3OC)SC2=S)cc1
    -2, -3
Cc1c(C(=O)N2CCN(C(=O)CCc3ccccc3)CC2)cc(-c2ccccc2)n1-c1ccc(F)cc1F
    -9, 1
O=C(CSc1nc2c(cnn2CCO)c(=O)[nH]1)Nc1cccc(Cl)c1
    4, 2
Cc1sc2nc3ccc(N4CCCC4)nn3c(=O)c2c1C
    -2, 0
CN1C(=O)NC(c2cccc(Cl)c2Cl)C2=C1CN(CCC(=O)N1CCN(c3cccc(C(F)(F)F)c3)CC1)C2=O (configuration not stated)
    1, 11
CCOC(=O)N1CCN(/C=C2\Oc3c(ccc(O)c3C)C2=O)CC1
    -10, -15
CCCC(=O)Nc1nc(C)c(C(=O)OCC)s1
    3, -4

Next records follow.
Below each compound: NPYLR7 ag, NPYLR7 ag max-min
CCOC(=O)C1(C)CCCCCN1C(=O)c1ccoc1 (configuration not stated)
    0, -6
Cc1ccc(OCC(=O)Nc2c3c(nn2C(C)(C)C)CSC3)cc1
    -2, -9
CC(=O)NCCOc1ccc(C(=O)N2CCOC(C(F)(F)F)C2)cc1 (configuration not stated)
    1, 0
CCNC(=O)N(Cc1ccc(OC)c(OS(=O)(=O)c2ccc(NC(C)=O)cc2)c1)C1CC1
    18, 5
COc1cc(C)c(C(=O)Oc2cc(C)c(C(=O)O)c(O)c2C)c(OC)c1C
    -15, -17
CSC1CCC(NC(=O)NCCCc2nc(C(C)C)no2)C1 (configuration not stated)
    5, 4
Cc1cccc(CO[C@]2(C(=O)NC3CC3)CC(OCc3ccc(C(F)(F)F)cc3)[C@H](O)[C@H](O)C2)c1 (some centres not stated)
    31, 37
Cc1oc2nc[nH]c(=O)c2c1C(=O)N(C)CC12CC3CC(CC(C3)C1)C2
    13, 15
O=C(NC(=S)NCc1cccnc1)c1ccc(-c2cccc(Cl)c2Cl)o1
    0, 0
CCC1CCCCN1C(=O)COC(=O)c1cc(Br)ccc1Cl (configuration not stated)
    12, 2

A second format for 6 compounds above:
compound	NPYLR7 ag	NPYLR7 ag max-min
Cc1ccc(OCC(=O)Nc2c3c(nn2C(C)(C)C)CSC3)cc1	-2	-9
CCOC(=O)C1(C)CCCCCN1C(=O)c1ccoc1 (configuration not stated)	0	-6
CCNC(=O)N(Cc1ccc(OC)c(OS(=O)(=O)c2ccc(NC(C)=O)cc2)c1)C1CC1	18	5
CC(=O)NCCOc1ccc(C(=O)N2CCOC(C(F)(F)F)C2)cc1 (configuration not stated)	1	0
Cc1oc2nc[nH]c(=O)c2c1C(=O)N(C)CC12CC3CC(CC(C3)C1)C2	13	15
CCC1CCCCN1C(=O)COC(=O)c1cc(Br)ccc1Cl (configuration not stated)	12	2

More compounds follow.
Below each compound: NPYLR7 ag, NPYLR7 ag max-min
Cc1n[nH]c(C)c1CCc1nncn1-c1cccc(C(F)(F)F)c1
    7, -5
COc1ccc(CC2CCN(C(=O)/C=C/c3ccccc3Cl)CC2)cc1
    10, 13
COc1cccc(NC(=O)CCC2CCN(C(=O)c3cscn3)CC2)c1
    15&0, 7&-5
CC(C)Oc1ccc(-c2cccc(F)c2C(N)=O)cc1
    7, 4
O=C(Nc1ccnn1C1CCN(C(=O)CC2CCCCC2)CC1)c1ccc2c(c1)OCO2
    -1, -2
O=[N+]([O-])c1ccc(NN=C2CCCC2=C2CCCC2)c([N+](=O)[O-])c1
    1, 0
COc1ccc(-c2nnc(SCC(=O)N/N=C\c3ccccc3F)n2-c2ccccc2)cc1OC
    -5, -11
Cc1nn(CC(=O)c2ccccc2)c(C)c1[N+](=O)[O-]
    4, 3
O=C1[C@@H]2C[C@H](O)CCN2C(=O)CN1CCCn1ncc2ccccc21
    -1, -6
COC(=O)CCCC(=O)NCC1Cc2cc(Oc3ccccc3)ccc2O1 (configuration not stated)
    26, 19

(further entries)
Below each compound: NPYLR7 ag, NPYLR7 ag max-min
CNS(=O)(=O)CC1CCCN1C(=O)c1sccc1C (configuration not stated)
    -1, -2
CC1CCN(Cc2csc(NC(=O)CC3OC(=O)c4ccccc43)n2)CC1 (configuration not stated)
    9, 10
COc1ccc(-n2c(SCC(=O)N3CCCCC3)nc3c([nH]c4ccccc43)c2=O)cc1
    1, 49
OC(c1ccc(CN(Cc2cccc(F)c2)C2CC2)o1)(c1cccs1)c1cccs1
    15, 20
Cc1cc(Cl)ccc1NC(=O)CN1C(=O)c2cccc([N+](=O)[O-])c2C1=O
    -6, -13
Cc1ccc(-n2nnnc2NCc2ccc(CS(C)(=O)=O)cc2)cc1
    18, 15
COc1ccc(-c2nc(C(=O)NC(C)C3CCCO3)cs2)cc1 (configuration not stated)
    2, 2
Cc1cccc(OCC2=NN3C(=N)/C(=C\c4ccc(C)o4)C(=O)N=C3S2)c1
    -1, -1
Cc1sc2nc3c4ccccc4c(C)nn3c(=O)c2c1C
    -9, -9
CCc1[nH]n(-c2ccc(Cl)c(Cl)c2)c(=O)c1C1=C([n+]2ccccc2)C(=O)N(CCOC)C1=O
    -13, -7

(further entries)
Below each compound: NPYLR7 ag, NPYLR7 ag max-min
COCc1nc(N2CC(Oc3c(C)cccc3C)C2)c2cnn(C)c2n1
    7, 1
Cc1ccsc1CN(C)c1ncnc2c1CCN(C(=O)c1cccnc1)C2
    4, 2
COc1ccc(-c2[nH]ncc2CNC(C)c2cn(C)nc2C)c(F)c1 (configuration not stated)
    -6, -9
Cc1cc(/C=C/c2ccc3cc(N(C)C)ccc3[n+]2C)c(C)n1-c1ccccc1
    0, -4
Cc1cc(C)cc(OCc2nc(CN(CCN3CCOCC3)C(=O)c3ccccc3F)cs2)c1
    26, 36
O=C(NC1CCCCC1)c1cc(-c2ccc(F)cc2)nc2cc(-c3ccccc3)nn12
    -1, 6

Only part of the results is shown; count on the stated rates, not on these rows.
